D2 ag – agonists of human D2 dopamine receptor (beta-arrestin). P14416. DiscoveRx PathHunter D2 beta-arrestin, luminescence, 90 min; 100% = 57 uM dopamine signal. activation, % (no concentration beside the values). 0.084% of 360,000 active. AID 624465; in the data active = activation above about 40%; inconclusive = about 15% to 40%; inactive = below about 15%; note: compound concentration not given in the record; the text of the record calls up to 30% inactive
Target sequence (P14416 whole entry, looked up): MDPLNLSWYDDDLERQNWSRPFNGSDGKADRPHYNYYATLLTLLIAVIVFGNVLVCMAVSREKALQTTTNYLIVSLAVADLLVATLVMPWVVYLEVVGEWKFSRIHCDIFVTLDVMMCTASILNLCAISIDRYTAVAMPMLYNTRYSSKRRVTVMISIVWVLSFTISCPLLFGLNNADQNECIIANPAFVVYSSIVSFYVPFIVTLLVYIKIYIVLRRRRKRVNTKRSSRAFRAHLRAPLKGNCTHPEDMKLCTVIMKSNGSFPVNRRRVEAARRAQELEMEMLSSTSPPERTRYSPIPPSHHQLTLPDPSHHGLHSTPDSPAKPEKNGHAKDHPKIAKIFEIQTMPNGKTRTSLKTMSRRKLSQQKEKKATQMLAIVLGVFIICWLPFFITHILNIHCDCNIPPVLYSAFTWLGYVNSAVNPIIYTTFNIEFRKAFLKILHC
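Agonist mode: compounds alone added to overnight-plated D2 PathHunter cells for 90 min at 37 C, with 57 uM final dopamine (EC100) defining full response. Beta-arrestin recruitment detected by chemiluminescent reagent, read after 1 h at ambient temperature.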
Sfp inh – inhibitors of Bacillus subtilis Sfp phosphopantetheinyl transferase | Q9F4F7 | Biochemical Sfp PPTase activity, qHTS | Potency, µM, for the others: max response, negative = inhibition, hits mostly inhibitors | 3.5% of 310,000 active | AID 1490; active = well fitted inhibition curve with a large enough effect; inconclusive = small, poorly fitted or top-dose-only effect, or another doubt; inactive = no such curve, though single readings can be large or run the other way;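 note: the enzyme is Sfp with the accession as filed and its product quenches rhodamine fluorescence; potency is the fitted concentration of half-maximal effect; 0% = enzyme reaction without inhibitor and -100% = no enzyme wells; top concentration of the series not given in the record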
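Buffer: 50 mM Hepes-Na pH 7.6, 10 mM MgCl2, 0.01% Nonidet P-40, 0.01% BSA. Enzyme 15 nM, pre-exposed to compound 15 min; substrates then added and fluorescence change tracked over 30 min.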
ClpP mod – qHTS Assay for Activators of ClpP. 1.9% of 340,000 active. AID 651965, 2013. purified B. subtilis ClpP, FRET peptide cleavage, 20 min. ATP-dependent Clp protease proteolytic subunit (Bacillus subtilis (strain 168)), P80244. Potency, µM (top dose mostly 57.5 µM), inactives show top-dose activity change, negative = active; active = well fitted falling curve with a large enough effect; inconclusive = small, poorly fitted or top-dose-only effect; inactive = no such curve, though single readings can be large or run the other way; note: potency is the fitted concentration of half-maximal effect; the source files actives as falling curves though it sought activators and does not explain the sign; nearly all actives have a fitted effect of over 65% in size; many hits overshoot -100%
Target sequence (P80244 whole entry, looked up): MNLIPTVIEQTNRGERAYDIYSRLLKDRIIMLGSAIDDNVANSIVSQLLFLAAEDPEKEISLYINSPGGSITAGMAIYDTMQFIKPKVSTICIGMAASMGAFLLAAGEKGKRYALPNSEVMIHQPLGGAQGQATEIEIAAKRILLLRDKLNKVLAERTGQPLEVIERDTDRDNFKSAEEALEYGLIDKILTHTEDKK
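Buffer: 100 mM Tris/HCl pH8, 100 mM KCl, 0.05% low protease BSA, 2.5% glycerol, 0.01% Tween-20. ClpP 10 microg/mL final; 20 min RT; delta FRET normalized to ADEP and DMSO controls.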
Menin MLL FP FL – inhibitors of human menin-MLL interaction, wild-type MLL peptide. Fluorescence polarization, fluorescein-MLL peptide displacement from menin. FP activity change, % at 61.4 µM. 290,000 tested, under 10 active; inconclusive = falling polarisation curve, or a change in total fluorescence; inactive = total fluorescence flat and polarisation flat or rising; no compound was filed as active; the % refers to the polarisation; negative = inhibition;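 note: % of control where 0% means no effect; inhibitors lower the polarisation; unlabelled MLL peptide was the positive control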
gsp antag – antagonizes gsp, the McCune-Albright syndrome mutation; gsp-mutant cells, cAMP HTRF, 30 min; control for the full effect not named in the record; Potency, µM (series often up to 76.9 µM), without a hit: at the top dose activity change, negative = inhibition, most hits filed as inhibitors; 0.4% of 340,000 active; active = falling curve of any shape with a large fitted effect; inconclusive = falling curve, mostly with a smaller effect; inactive = flat or rising curve; cell line not stated here;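 note: intracellular cAMP measured with PDE inhibitor Ro 20-1724 present during compound exposure; potency is the fitted concentration of half-maximal effect; % is set by controls: 0 for no effect and ±100 for the full control effect; nearly all actives have a fitted effect of over 65% in size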
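Cells in G418 medium, seeded 16-24 h, 37C; buffer exchange to DPBS + 1 mM CaCl2, 0.5 mM MgCl2, 0.05% BSA; cpds in DMSO + […] (300 uM stock), 30 min 37C; HTRF cAMP detection.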
gsp agonist – gsp mutant agonism; 0.13% of 340,000 active; gsp mutant cells, cAMP HTRF, 30 min; control for the full effect not named in the record; Potency, µM (doses to about 76.9 µM), for inactives: at the highest dose activation (cAMP increase), hits mostly activators; active = well fitted activation curve with a large enough effect; inconclusive = small, poorly fitted or top-dose-only effect, or another doubt; inactive = no such curve, though single readings can be large or run the other way; cell line not stated here;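 note: phosphodiesterase inhibitor Ro 20-1724 added with compounds to block cAMP breakdown; potency is the fitted concentration of half-maximal effect; nearly all actives have a fitted effect of over 60% in size; about a fifth of the inactives were tested at one dose only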
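Cells stably selected in G418 were plated at 2000/well, grown 16-24 hr, then given compounds in DMSO with the PDE inhibitor […] (300 uM solution added) for 30 min at 37C; cAMP was read by HTRF.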
PINK1 modulator – modulators of PINK1 expression; PINK1 immunofluorescence, high-content cytometry, 24 h; Potency, µM (top dose mostly 76.6 µM), inactives show top-dose activation (PINK1 increase), actives largely listed as activators; 0.2% of 410,000 active; AID 624263; active = well fitted activation curve with a large enough effect; inconclusive = small, poorly fitted or top-dose-only effect; inactive = flat fitted curve, though single readings scatter; cell line not stated here;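 note: potency is the fitted concentration of half-maximal effect; % of control where 0% means no effect; nearly all actives have a fitted effect of over 65% in size; a mitochondrial uncoupler was the plate control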
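Cells are seeded, rested 12 hours, then given compound at five concentrations or DMSO for 24 hours. After fixation, blocking and antibody staining, PINK1 amount and mitochondrial localization are scored; CCCP serves as control.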
Starred values were filed as active, the others as inactive; ? = inconclusive; . = not tested or not shown; [ ] = dose if it differs, or a comment.

Compound	D2 ag	Sfp inh	ClpP mod	Menin MLL FP FL	gsp antag	gsp agonist	PINK1 modulator
O=C(c1ccc(-n2cnnn2)cc1)N1CCCCC1	0.0	-9%	-0.7%	2.0	-4%	7%	-0.5%
Cc1cc(C)c2c(n1)sc1c(=O)n(Cc3ccc(F)cc3)cnc12	1.8	22%	11%	0.3	-2%	3%	1.6%
CC(=O)Nc1sc(N/N=C/c2ccc(O)cc2)nc1-c1ccc(C)cc1	5.3	-2%	-23%	2.8	-5%	12%	1.0%
CCN(CC)c1ccc(C=Nc2ccc(C)cc2)c(O)c1	-3.4	-17%	-0.1%	3.3	1%	21%	1.1%
Cc1c(Cl)cnc(NC(=O)COC(=O)c2cccs2)c1Cl	2.1	.	-1.7%	.	12%	?	3.0%
COc1ccccc1NC(=O)Cn1c(=O)sc2ccccc21	-0.2	21%	0.8%	-2.7	7%	28%	2.9%
Cc1ccc(C)c(N2CCN(C(=O)c3ccc(N4CCOCC4)c([N+](=O)[O-])c3)CC2)c1	-2.3	-14%	.	2.5	-10%	4%	-1.6%
Cc1ccc(S(=O)(=O)N/N=C\c2cccnc2)cc1	4.1	-21%	-6.2%	0.2	0%	-16%	.
S=C(NCc1ccccc1)NNc1nc2ccccc2[nH]1	9.8	4µM*	.	0.3	4%	25%	-1.4%
CCSc1nc(O)c(Cc2ccccc2)c(=O)[nH]1	-0.6	16%	-2.2%	4.0	13%	-1%	1.8%
O=C1CCc2cc(S(=O)(=O)NCc3ccc(F)cc3)cc3c2N1CCC3	-0.6	.	.	.	2%	11%[15.4 µM]	4.5%
CC(C)C1OC2(C)OC(=N)C1(C#N)C(C#N)(C#N)C2c1ccccc1 (stereo unspecified)	7.8	24%	0.9%	?	-10%	-5%[15.4 µM]	3.2%
CCC(C)C(N)C(=O)N1CCCC1C(=O)NC(C(=O)O)C(C)CC (stereo unspecified)	-4.4	.	-0.2%	.	9%	.	0.3%
CCC(=O)N1CCc2cc(Br)cc(S(=O)(=O)N3CCCC(C(=O)O)C3)c21 (stereo unspecified)	-0.2	1%	0.4%	.	7%	-3%	-0.7%
CS(=O)(=O)c1ccc(-c2cnc3c(NC=O)cc(-c4ccsc4)cn23)cc1	7.4	.	4.8%	.	.	.	0.9%
O=C(/C=C/c1ccco1)Nc1ccc(Cl)c(S(=O)(=O)N2CCOCC2)c1	-4.3	?	-2.6%	2.3	?	23%	1.7%
COc1ccc(OC)c(C=NNC(=O)c2ccc(NS(=O)(=O)c3cccs3)cc2)c1	-6.1	.	2.6%	.	?	-11%[15.4 µM]	-1.0%
Cc1coc2cc3oc(=O)c(CCC(=O)N4C[C@H]5C[C@@H](C4)c4cccc(=O)n4C5)c(C)c3cc12	-3.5	10%	4.0%	3.5	-8%	.	-0.2%
CC(NC(=O)c1cccc(S(=O)(=O)N2CCCCCC2)c1)c1ccccc1 (stereo unspecified)	0.0	.	0.2%	.	-7%	0%	1.5%
CC(C)(C)c1ccc(C(=O)OC/C(O)=C(\C#N)c2nc3ccccc3s2)cc1	-3.0	-5%	1.4%	2.3	-11%	13%	?

(further entries)
Compound	D2 ag	Sfp inh	ClpP mod	Menin MLL FP FL	gsp antag	gsp agonist	PINK1 modulator
COc1ccc(S(=O)(=O)Nc2cccc3c2O[C@H](CN(C)C(=O)Nc2ccccc2)[C@@H](C)CN([C@H](C)CO)C3=O)cc1	-4.4	.	-1.4%	.	-19%	.	-0.1%
Cc1nc2sc(C(c3ccc(Cl)cc3)N3CCN(C(=O)c4ccco4)CC3)c(O)n2n1 (stereo unspecified)	1.2	15%	-1.1%	1.6	5%	-22%	-0.5%
Nc1nc(SCc2ccc(Cl)cc2Cl)c2ncn(C3OC(CO)C(O)C3O)c2n1 (stereo unspecified)	5.1	.	.	.	8%	-17%	10%
Cc1cc(C)cc(NC(=S)NCc2ccc(S(N)(=O)=O)cc2)c1	0.4	4%	.	-4.5	.	-3%[15.4 µM]	0.3%
Cn1c(=O)c2c(nc(SCCN3CCCCC3)n2Cc2ccc(Cl)cc2)n(C)c1=O	-2.1	3%	-2.5%	-0.2	7%	-23%	3.7%
C=CCNC(=O)c1ccc(-c2nc(-c3ccccc3)cs2)cc1	2.8	-8%	?	-3.9	?	12%	.
COc1ccc(-c2cc(C(=O)N/N=C(\C)c3cccnc3)c3ccccc3n2)cc1	-3.6	-1%	23%	-3.0	-5%	-38%[inhibitor]	13%
COCc1cc(C)nc(SCC(=O)Nc2ccc(N3CCOCC3)cc2)c1C#N	-4.1	14%	-1.1%	1.8	4%	-9%	8.1%
CCOC(=O)C1(C)CCCCN1C(=O)c1cccc(Cl)c1 (stereo unspecified)	-2.5	.	0.4%	.	.	.	-0.1%
CCC(C)c1ccc(OCc2ccc(C(=O)O)o2)cc1 (stereo unspecified)	-3.1	12%	-0.2%	2.4	0%	-44%[inhibitor]	-0.2%
CCCn1ncc(CN2CCC(C(=O)Nc3cccc(-c4cccc(F)c4)c3)CC2)c1C	1.6	-6%	0.8%	-2.4	7%	-11%	-1.7%
CC(C)Sc1nc(C(F)(F)F)cc(=O)n1-c1ccccc1	-1.6	9%	-0.8%	0.5	-7%	-42%	5.1%
O=C(OCc1ccc(Br)cc1)c1ccncc1	-2.2	-8%	-2.2%	7.6	-2%	26%	-0.4%
CCCNC1=C(N(C(C)=O)c2cccc(F)c2)C(=O)c2ccccc2C1=O	?	19%	1.4%	-4.8	8%	-16%	-0.8%
COn1c(SC(C)C)nc2ccccc2c1=O	-0.9	-9%	-3.0%	1.4	-11%	-55%[inhibitor]	3.8%[38.3 µM]
Cc1cccc(OCC(=O)NCCCNC(=O)c2ccco2)c1	1.0	-2%	.	-1.3	8%	0%	0.5%
CCOc1cc(C2c3c(-c4ccccc4)n[nH]c3C(=O)N2c2ccc(C(=O)O)cc2)ccc1O (stereo unspecified)	-5.6	11%	0.4%	-1.4	-1%	16%	3.4%
Cc1c(NS(=O)(=O)c2cccc(C(=O)NC(C)c3ccccc3)c2)c(=O)n(-c2ccccc2)n1C (stereo unspecified)	-1.7	.	0.9%	.	9%	4%	1.2%
CC(=O)Nc1cccc(NC(=O)c2cc([N+](=O)[O-])ccc2N2CCCCC2)c1	-1.0	.	1.0%	.	-14%	2%	4.7%
Cn1nnc2cc(C(=O)N3CCSCC3)ccc21	-1.7	24%	-0.7%	3.7	-3%	-17%	0.4%

Continued:
Compound	D2 ag	Sfp inh	ClpP mod	Menin MLL FP FL	gsp antag	gsp agonist	PINK1 modulator
O=C(O)CN(Cc1ccco1)S(=O)(=O)c1ccc(F)cc1	-5.0	14%	2.2%	1.5	5%	-16%[15.4 µM]	1.0%
Cc1ccnc(NCc2cc(Cl)cc(Cl)c2O)c1	2.9	.	1.2%	.	.	-101%[inhibitor]	3.4%
O=C(Cc1ccccc1)Nc1ccnn1C1CCN(Cc2ccc(CO)o2)CC1	-2.2	5%	1.2%	-2.8	-3%	0%[15.4 µM]	0.1%
Cc1ccccc1-n1ncc2c1CC(C)(C)CC2NC(=O)CCn1cncn1 (stereo unspecified)	3.2	19%	0.5%	-1.3	-1%	17%	-0.7%
CN(Cc1ccccc1)S(=O)(=O)c1ccc(Cl)c(C(=O)NCc2cccnc2)c1	0.0	.	-4.1%	.	-5%	-51%[inhibitor]	-0.6%
CCOC(=O)c1cc2c(=O)c3ccccc3oc2nc1C	-6.4	13%	-5.1%	-0.4	-2%	-2%	3.9%
CCCc1ncc(C(O)c2cccc(OC)c2OC)n1C (stereo unspecified)	0.0	6%	-3.4%	0.9	4%	4%	-4.1%[38.3 µM]
O=C(NCc1ccco1)C1CCCN(S(=O)(=O)c2ccc(Br)cc2)C1 (stereo unspecified)	-5.1	5%	.	-5.2	-8%	12%[15.4 µM]	1.1%
CC(=O)NC(Cc1ccccc1)C(=O)OCC(=O)c1ccc(Br)cc1 (stereo unspecified)	-6.2	13%	1.6%	4.5	9%	-2%	3.9%
O=C(NNC(=O)c1c(O)c2ccccc2[nH]c1=O)c1ccccc1Br	-2.5	-2%	.	-3.9	-10%	4%[15.4 µM]	-0.8%
CC(c1ccccc1)n1c(SCC(=O)N2CC(=O)Nc3ccccc32)nc2ccccc2c1=O (stereo unspecified)	-1.0	3%	0.4%	-1.1	-7%	5%	0.7%
CCc1ccccc1S(=O)(=O)Cc1ccc(C(=O)NC2CCCC2)o1	1.8	25%	-0.6%	.	7%	-10%	1.0%
CCOC(=O)N/N=C\c1ccc([N+](=O)[O-])o1	1.7	15%	-0.2%	0.2	-2%	-23%	.
CCCNC(=O)C1(C)CCCN(C(=O)COc2ccc(C(C)(C)C)cc2)C1 (stereo unspecified)	-1.2	.	-3.3%	.	.	.	0.2%
COc1ccccc1Cc1c(-c2ccc(OC)c(OC)c2)nc2c3ccccc3ccn12	-5.0	.	4.7%	.	.	.	0.5%
COc1ccc(C(=O)N2CCN(Cc3ccccc3C)CC2)cc1OC	-3.3	-15%	-0.8%	4.3	11%	1%	-0.6%
c1ccc(OCCOc2ccccc2-c2nnco2)cc1	-1.3	7%	0.0%	-0.8	11%	-38%[inhibitor]	-1.0%
COC(=O)c1ccc(CSc2cc(C)c3ccccc3n2)o1	-6.4	25µM*	.	?	-20%	-10%[15.4 µM]	6.1%
CCOc1ccc(CCNC(=O)c2cc3sccc3n2C)cc1OCC	0.8	-6%	1.6%	4.9	-29%	-13%	1.7%
Cc1c(C(=O)N/N=C/c2ccccc2)[nH]c2ccc(Cl)cc12	7.7	15%	-0.9%	14	-6%	?	1.8%
COc1cc2cc(CCCOC(=O)c3ccc(F)cc3)oc(=O)c2cc1OC	1.1	.	-2.4%	.	-5%	.	0.8%
Cc1nc2ccccc2nc1CSc1nnc(N)s1	1.0	0%	1.2%	0.4	-6%	6%	0.7%
O=C(CCC(=O)N(c1ccccc1)C(C(=O)NC1CCCC1)c1ccncc1)Nc1cccnc1 (stereo unspecified)	-1.4	7%	-0.2%	4.9	8%	16%	-5.5%
